Arbovirus inh = arbovirus infection inhibition | hit rate 0.37% among 200,000 | inhibition, % at 10 µM | arbovirus infection cell-based antiviral screen;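 active = inhibition from about 30%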;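 note: bluetongue infection of BSR cells; cell survival read as ATP light after 72 h; 0% = infected wells without compound and 100% = uninfected wells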
Mtb bLac sens = beta-lactam sensitization of Mtb H37Rv; M. tuberculosis H37Rv growth with meropenem, percent inhibition; hits of this screen are not shown here; inhibition, % at 25 µM; hit rate 0.27% among 330,000; AID 434955;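 active = about 74% or more and at least 40 points above the plate without the antibiotic, then above 30% in a dose series; inconclusive = first-round hits that could not be retested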;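 note: growth measured after seven days incubation then overnight dye step; 0% = bacteria only wells and 100% = bacteria with antibiotic; twin plates without the antibiotic show which effects depend on it; some results filed as inactive read as strong as hits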
YopH inh = blocks Yersinia enterocolitica YopH tyrosine phosphatase. hit rate 0.16% among 140,000. inhibition, %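 (about 10 µM by stock and volumes)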. fluorescence Ex485/Em525. AID 898;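 active = inhibition of 50% or more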;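 note: controls were vehicle for no effect and minimum signal wells for full effect; inactives centre near -20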
RecA splice inh = Mtb RecA intein splicing inhibition. inhibition, %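 (about 9 µM by stock and volumes)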. cell-free RecA intein splicing, fluorescence. hit rate 0.75% among 290,000. P9WHJ3; in the data active = inhibition above about 30%; inconclusive = no clear call, values can overlap the other calls;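 note: 0% = vehicle wells and 100% = reference inhibitor control wells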
Target sequence (P9WHJ3 whole entry, looked up, canonical isoform): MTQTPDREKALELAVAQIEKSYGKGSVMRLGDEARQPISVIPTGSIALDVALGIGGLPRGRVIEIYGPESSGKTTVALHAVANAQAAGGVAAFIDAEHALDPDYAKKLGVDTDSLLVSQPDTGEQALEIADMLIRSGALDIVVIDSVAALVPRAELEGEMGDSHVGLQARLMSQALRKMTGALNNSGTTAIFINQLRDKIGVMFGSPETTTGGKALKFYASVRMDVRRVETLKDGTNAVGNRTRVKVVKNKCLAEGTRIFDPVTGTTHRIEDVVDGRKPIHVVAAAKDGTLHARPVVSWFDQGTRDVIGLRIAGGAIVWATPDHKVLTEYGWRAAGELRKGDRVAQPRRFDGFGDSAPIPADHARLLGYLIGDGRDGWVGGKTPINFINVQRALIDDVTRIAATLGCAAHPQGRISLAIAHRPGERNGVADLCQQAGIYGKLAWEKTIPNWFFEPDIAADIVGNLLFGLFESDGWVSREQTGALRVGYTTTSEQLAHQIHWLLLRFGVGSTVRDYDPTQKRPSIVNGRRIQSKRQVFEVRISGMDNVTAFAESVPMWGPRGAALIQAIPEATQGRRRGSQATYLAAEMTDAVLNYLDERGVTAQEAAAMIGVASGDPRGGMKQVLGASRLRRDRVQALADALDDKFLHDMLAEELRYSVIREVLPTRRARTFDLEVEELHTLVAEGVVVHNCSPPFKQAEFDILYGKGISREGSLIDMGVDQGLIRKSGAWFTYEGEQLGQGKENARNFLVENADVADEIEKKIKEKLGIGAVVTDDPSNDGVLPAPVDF
Mtb H37Rv = M. tuberculosis H37Rv growth inhibitors, H37Rv strain (AID 1626). inhibition, % at 10 µM, or IC50 in µM where a hit was titrated. hit rate 0.95% among 220,000. M. tuberculosis H37Rv growth inhibition; higher % means a stronger effect;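 active = confirmed in a dose series; inconclusive = inhibition above 80% but not taken into the dose series; inactive = below 80% or under 30% at every dose of the series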;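 note: bacteria incubated seven days before Alamar blue readout; 0% = bacteria only wells and 100% = bacteria with antibiotic wells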
Arbovirus inh repeat = also measured in Arbovirus inh; calls as there; inhibition, %; measured here: 10K subset replicate screen; many hits read low in the repeat;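 first of two repeat runs on a subset; 0% = infected and 100% = uninfected wells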
* = called active by the depositor; ? = inconclusive; . = no result given. A portion of the library (hit frequency here may not be typical).

Sample of the layout, six compounds:
SMILES | Arbovirus inh | Mtb bLac sens | YopH inh | RecA splice inh | Mtb H37Rv | others
CCOC(=O)CN(c1ccccc1)S(=O)(=O)c1ccc(F)cc1 | 14.8 | -1.0 | . | 2.3 | .
CCN(CC)CCn1c(NCc2ccco2)nc2ccccc21 | -1.1 | -5.2 | -4.0 | -1.1 | 2.8%
COc1ccc(Cl)cc1N(CC(=O)N1CCC(C)CC1)S(C)(=O)=O | 3.3 | -6.0 | -49.6 | -1.4 | -9.2% | Arbovirus inh repeat=5.3
COc1ccc(C(=O)Nn2c(SCc3cccc([N+](=O)[O-])c3)nc3ccccc3c2=O)cc1 | 3.0 | 3.0 | -15.2 | -10.1 | 9.5%
Cc1ccc(S(=O)(=O)NC(=O)Nc2ccc(N(C)C)cc2)cc1 | . | -9.4 | . | 49.1* | .
COCCN=C1Sc2nc3cc(C)c(C)cc3cc2CN1Cc1cccs1 | . | 5.1 | . | 1.0 | 10.0%

This part in full (from the top)
SMILES | Arbovirus inh | Mtb bLac sens | YopH inh | RecA splice inh | Mtb H37Rv | others
CCOC(=O)CN(c1ccccc1)S(=O)(=O)c1ccc(F)cc1 | 14.8 | -1.0 | . | 2.3 | .
CCN(CC)CCn1c(NCc2ccco2)nc2ccccc21 | -1.1 | -5.2 | -4.0 | -1.1 | 2.8%
COc1ccc(Cl)cc1N(CC(=O)N1CCC(C)CC1)S(C)(=O)=O | 3.3 | -6.0 | -49.6 | -1.4 | -9.2% | Arbovirus inh repeat=5.3
COc1ccc(C(=O)Nn2c(SCc3cccc([N+](=O)[O-])c3)nc3ccccc3c2=O)cc1 | 3.0 | 3.0 | -15.2 | -10.1 | 9.5%
Cc1ccc(S(=O)(=O)NC(=O)Nc2ccc(N(C)C)cc2)cc1 | . | -9.4 | . | 49.1* | .
COCCN=C1Sc2nc3cc(C)c(C)cc3cc2CN1Cc1cccs1 | . | 5.1 | . | 1.0 | 10.0%
O=C(c1cccc(S(=O)(=O)N2CCOCC2)c1)N1CCN(S(=O)(=O)c2cccs2)CC1 | 4.7 | -3.3 | . | 0.1 | 3.4%
COc1cc(C2C3=C(CC(C)(C)CC3=O)Nc3ccccc3N2C(C)=O)cc(OC)c1OC (centres undefined) | . | -4.4 | . | -0.4 | .
O=C(NCc1cccs1)Nc1cccc(Cl)c1 | . | -6.2 | -18.3 | -3.2 | -11.3%
CN(C)CC(C)(C)CNC(=S)NCc1ccc2c(c1)OCO2 | -3.0 | -0.3 | -25.3 | -0.6 | -0.9%
CC1(C)OC(=O)C(=CNC(Cc2c[nH]c3ccccc23)C(=O)O)C(=O)O1 (centres undefined) | -1.1 | -2.2 | -27.4 | -1.5 | -4.9%
CCn1c(COc2ccc3c(c2)OCO3)nnc1SCC(=O)c1ccc(Cl)cc1 | -3.0 | -3.6 | -4.2 | 1.8 | -0.4%
CCn1c(=O)cc(SCC(=O)Nc2ccc(Cl)cc2)c2ccccc21 | -10.3 | 1.9 | -13.6 | 6.2 | -10.8%
O=C(COC(=O)c1ccccc1F)NC1CCCC1 | . | -1.4 | . | -1.5 | .
O=C1CCC(CCC(=O)N2CCCC(C(=O)c3ccc4c5c(cccc35)CC4)C2)=NN1 (centres undefined) | 2.7 | -5.3 | . | -2.1 | 6.4%
CCN1C(=O)N[C@@H](c2ccco2)C(C(C)=O)=C1C | . | 2.5 | . | 1.4 | -7.5%
Cc1c(C(=O)NCc2ccccc2)oc2c1C(=O)CCC2 | 0.7 | -11.6 | -3.1 | 1.3 | 4.2%
Clc1ccc(CSc2ccc(-c3ccco3)nn2)cc1 | -4.0 | 5.7 | . | 1.6 | -5.5%
CCC(=O)N1CC2(CC(c3cccc(NC(=O)COc4ccc(Cl)cc4)c3)=NO2)C[C@@H]1C(N)=O (some centres undefined) | . | . | . | -0.2 | 2.9%
CCN(CC)C(=O)CSc1nnc(-c2cccnc2)n1Cc1ccccc1 | 5.7 | -8.8 | -11.2 | -0.7 | -0.1%
O=C(O)c1cc(S(=O)(=O)Nc2ccccc2C(=O)O)ccc1O | -1.9 | -3.6 | -7.3 | 0.9 | -11.3%
O=C(Nc1ccn(Cc2ccccc2F)n1)c1ccc(COc2cccc(Br)c2)cc1 | -17.1 | -6.8 | 0.1 | 13.6 | 5.7%
CCOC(=O)C1=NOC(Cn2cc(C(C)=O)c(=O)[nH]c2=O)C1 (centres undefined) | 8.4 | 2.4 | . | 5.1 | 0.7%
COCCn1c(C)cc(O)c(C(=O)Nc2cccc(Cl)c2)c1=O | . | -1.7 | . | -1.5 | .
CCOc1ccc(-c2cnc3n2CCC3)cc1 | -11.1 | . | -1.0 | -5.6 | 8.4%
COc1ccc(-c2nc3ccccc3c(=O)n2CCN2CCOCC2)cc1 | 2.2 | -0.8 | -21.8 | -2.8 | 7.1%
Cc1cc(C(F)(F)F)nn1CC(=O)NCC1CCCO1 (centres undefined) | -2.6 | -12.4 | -40.5 | -0.5 | -2.9%
Fc1ccc(-c2nc(-c3cnccn3)no2)c(Cl)c1 | . | -5.0 | . | . | -4.9%
O=c1c([N+](=O)[O-])c(NC2CCCCC2)c2ccccc2n1-c1ccccc1 | -6.3 | 3.7 | -20.9 | -2.4 | 0.0%
CCN(CC)S(=O)(=O)c1cccc(C(=O)N[C@H](C(=O)OCC(=O)NC(=O)NC)C(C)C)c1 | 6.0 | -5.6 | -110.2 | -1.8 | -3.3%
COc1ccc(S(=O)(=O)N2CCN(C(=O)c3cnc(C)cn3)CC2)cc1 | 1.8 | -0.1 | 13.3 | -1.8 | -2.9%
Cc1ccc(Sc2ncnc3onc(C)c23)cc1 | -2.1 | 91.6 | 3.1 | 40.5* | 17.3%
Cc1ccccc1-c1nc(CN2CCC(C(=O)NCc3cccnc3)CC2)c(C)o1 | 6.1 | -10.1 | -11.3 | 5.7 | -3.8%
CCOc1ccc(/C(O)=C2/C(=O)C(=O)N(CCCN3CCOCC3)C2c2ccc(C)cc2)cc1C (centres undefined) | . | -11.9 | . | 4.3 | .
CCOC(=O)CNNC(=O)Nc1ccc(Cl)c(Cl)c1 | -0.4 | -2.9 | 6.8 | 4.7 | 7.0%
O=C(O)C1CCCN1C1=NS(=O)(=O)c2ccccc21 (centres undefined) | . | 1.6 | . | -0.6 | .

By substructure: the compounds so far containing an NH in an aromatic ring.
SMILES | Arbovirus inh | Mtb bLac sens | YopH inh | RecA splice inh | Mtb H37Rv | others
CC1(C)OC(=O)C(=CNC(Cc2c[nH]c3ccccc23)C(=O)O)C(=O)O1 (centres undefined) | -1.1 | -2.2 | -27.4 | -1.5 | -4.9%
CCOC(=O)C1=NOC(Cn2cc(C(C)=O)c(=O)[nH]c2=O)C1 (centres undefined) | 8.4 | 2.4 | . | 5.1 | 0.7%

The main list resumes, repeating the three entries before the break.
SMILES | Arbovirus inh | Mtb bLac sens | YopH inh | RecA splice inh | Mtb H37Rv | others
CCOc1ccc(/C(O)=C2/C(=O)C(=O)N(CCCN3CCOCC3)C2c2ccc(C)cc2)cc1C (centres undefined) | . | -11.9 | . | 4.3 | .
CCOC(=O)CNNC(=O)Nc1ccc(Cl)c(Cl)c1 | -0.4 | -2.9 | 6.8 | 4.7 | 7.0%
O=C(O)C1CCCN1C1=NS(=O)(=O)c2ccccc21 (centres undefined) | . | 1.6 | . | -0.6 | .
COc1ccc(CNS(=O)(=O)NCc2ccccc2)cc1OC | 5.6 | 4.3 | . | . | 4.9%
COc1cc(NS(=O)(=O)c2ccc(NC(=O)NC3CCCCC3)cc2)nc(OC)n1 | 2.6 | -0.1 | -40.4 | 0.4 | -5.2%
Cc1onc(-c2c(Cl)cccc2Cl)c1C(=O)NC1CCCCC1 | . | -4.1 | . | 5.1 | .
Cc1ccc(Nc2nnns2)cc1C | -2.4 | -0.5 | -9.2 | 2.6 | 1.9%
S=C(NCc1cccnc1)Nc1ccc(Oc2ccccc2)cc1 | -8.7 | -0.5 | . | 9.4 | 24.0%
O=C1NC[C@H](c2ccccc2)N(CCC23CC4CC(CC(C4)C2)C3)C1=O | . | -2.1 | . | 2.9 | .
O=C(Cc1ccccc1)NCCSCc1ccccc1 | -6.7 | 4.0 | -39.1 | 2.4 | 2.8%
COc1ccc(/C=C/C(=O)N(C)C2(C)CCS(=O)(=O)C2)cc1 (centres undefined) | . | 4.2 | . | 0.6 | .
O=C(CSc1nnc(-c2ccncc2)n1Cc1ccco1)Nc1cccc(O)c1 | 6.2 | -8.9 | . | -0.1 | -3.1%
O=C(Nn1cc(C(=O)Nc2ccccc2F)c2ccccc2c1=O)c1cnccn1 | -12.1 | 85.3 | . | -0.7 | ?
O=c1c2ccccc2[nH]c(=S)n1-c1cccnc1 | . | -8.1 | . | -1.3 | -0.1%
COc1ccc(N2C(=O)CCC2(C#N)c2ccc(Br)cc2)cc1 (centres undefined) | 7.3 | 14.8 | -26.4 | 9.3 | -3.5%
Cc1ccc2[nH]c3c(Cl)ncnc3c2c1 | . | -8.8 | . | -1.7 | 3.7%
O=C(Nc1ccc(O)cc1)c1ccccc1OCc1ccccc1 | . | 4.1 | . | 12.1 | .
O=C(Oc1cccc2cccnc12)c1ccc2c(c1)OCCO2 | 3.4 | 100.1 | -27.3 | 1.1 | 0.1%
O=C(N/N=C/c1ccc2cccc(OCc3ccccc3)c2n1)c1ccc(Br)cc1 | -16.7 | 36.0 | -16.9 | -0.5 | 1.9%
CC(C)OC(=O)CSc1nc2c(cc1C#N)CCCCC2 | 8.6 | 43.0 | . | 0.9 | .
Cc1ccc(Cn2nc(C)c(/C=N/NC(=O)c3cccnc3)c2C)cc1 | -0.2 | -3.9 | . | -0.2 | -0.6%
CC(C)c1ccc2c(c1)C1Cc3ccccc3C1N2 (centres undefined) | 7.0 | 1.4 | -14.3 | 3.4 | 94.3%
O=C1CC(c2cccc(Cl)c2)Cc2nc(N3CCOCC3)ncc21 (centres undefined) | -0.5 | 9.6 | -37.1 | 1.9 | 6.0%
CC1CCN(C(=O)COC(=O)CCCN2C(=O)c3cccc4cccc(c34)C2=O)CC1 | . | -2.0 | . | -0.1 | .
CC(C)C12CN3CCN(CC(C3)/C1=N\O)C2 | 3.9 | -0.6 | -8.2 | 2.5 | -7.2%
C=CCn1cc(C(=O)NCCCOC)c(=O)c2cc(S(=O)(=O)N3CCC(C)CC3)ccc21 | 6.1 | -0.9 | . | . | . | Arbovirus inh repeat=-1.9
CCCn1c(SCCN2CCOCC2)nc2c1c(=O)n(C)c(=O)n2C | . | -3.8 | . | -2.5 | .
COc1cc(C2C3=C(CCCC3=O)Nc3[nH]n(-c4ccccc4)c(=O)c32)ccc1OC(C)=O (centres undefined) | 15.7 | 2.9 | . | 0.8 | -4.2%
N#C/C(=C\c1cccc(Br)c1)C(=O)N1CCCCC1 | . | 24.0 | . | 15.0 | .
NNC(=O)c1cc2c(ccc3ccccc32)o1 | -5.7 | 6.0 | . | -2.6 | ?
O=C(CN1CCN(Cc2ccc(F)cc2)C1=O)NCc1cccs1 | -2.7 | 3.2 | -18.5 | 1.0 | 5.7% | Arbovirus inh repeat=0.4
Nc1ccc2nc(COc3ccccc3)[nH]c2c1 | . | -4.8 | . | 23.0 | .
O=C(COC(=O)c1cc2ccccc2cc1O)NC(=O)NCc1ccco1 | 6.7 | -4.9 | . | 1.4 | -3.2%
CCOc1cc(NC(=S)NCCCN2CCOCC2)c(OCC)cc1NC(=O)c1cccs1 | 3.8 | -3.9 | . | -1.7 | .
COc1ccc(C(CCN2CCN(c3ccccc3)CC2)c2c(OC)cc(OC)c3c(-c4ccccc4)cc(=O)oc23)cc1 (centres undefined) | . | -6.3 | . | 5.3 | 6.7%
O=C(c1cc(=O)c2cc(Cl)ccc2o1)N1CCN(Cc2ccccc2)CC1 | . | -1.4 | . | 2.4 | .
Cc1sc2ncn(CC(=O)Nc3ccccc3F)c(=O)c2c1-c1ccccc1 | 22.6 | 5.7 | . | 1.5 | 0.1%
O=C1CC(c2ccccc2)CN1C(=O)c1cccc([N+](=O)[O-])c1 (centres undefined) | 8.6 | -2.1 | -34.7 | 4.6 | 0.1%
Cc1ccc(NC(=S)N(CCN(C)C)Cc2cc3cc(C)ccc3[nH]c2=O)cc1 | -0.9 | -2.9 | . | -4.2 | -0.2%
CCOc1cc2[nH]c(=S)n(CCCOC)c(=O)c2cc1OCC | -2.5 | 52.6 | -14.1 | -0.6 | -1.5%
FC(F)Oc1ccc(NC(=S)NNc2ccnc3cc(Cl)ccc23)cc1 | -6.9 | -0.8 | . | 1.6 | -11.7%
CCOc1ccc(-c2cc(C(=O)N/N=C(\C)c3cccnc3)c3ccccc3n2)c(OCC)c1 | . | 3.9 | . | -1.5 | .
COc1ccc([C@@H]2OC2(C(N)=O)C(N)=O)cc1 | . | 8.2 | . | 0.6 | -3.0%
Cc1cccc(CCNCc2cc3cc(C)cc(C)c3[nH]c2=O)c1 | . | 1.8 | . | -6.0 | .
Nc1cc(=O)[nH]c(SCC(=O)Nc2cccc([N+](=O)[O-])c2)n1 | . | -1.2 | . | -0.7 | -7.5%
